FGF22 binding = binders of human FGF22 protein, primary screen, FGF22 synaptogenesis inhibitor project, biophysical, thermal shift, single point. Fibroblast growth factor 22 (Homo sapiens), Q9HCT0. recombinant FGF22 thermal shift, SYPRO orange fluorescence; percent of sucrose octasulfate shift, DMSO zero. calls only at 9.99 µM. hit rate 1.5% among 340,000;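 active = melting point raised past a set limit in the mean and every replicate; inconclusive = no clear call; three in four hits are not shown here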
Target sequence (Q9HCT0 whole entry, looked up): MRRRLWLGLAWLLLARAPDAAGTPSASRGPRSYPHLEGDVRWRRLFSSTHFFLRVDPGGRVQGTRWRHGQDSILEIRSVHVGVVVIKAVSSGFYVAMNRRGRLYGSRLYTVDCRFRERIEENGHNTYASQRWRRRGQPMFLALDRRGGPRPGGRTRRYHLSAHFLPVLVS
AF4-AF9 inh = inhibitors of AF4 peptide binding to AF9, primary screen, biochemical, AlphaScreen, biotin-AF4 peptide, FLAG-AF9, single point | Protein AF-9 (Homo sapiens), P42568 | inhibition, % at 10 µM | hit rate 0.47% among 350,000 | AID 651704, 2012;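 active = every replicate reaching a set inhibition limit, whatever the replicate mean, cut at about 25% in these data; inconclusive = mean inhibition reaches that limit but some replicates miss it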;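 note: 0% = plate neutral control median and 100% = total signal loss; the record names both 10 and 1 µM as test concentration; the first replicate is given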
Target sequence (P42568 whole entry, looked up): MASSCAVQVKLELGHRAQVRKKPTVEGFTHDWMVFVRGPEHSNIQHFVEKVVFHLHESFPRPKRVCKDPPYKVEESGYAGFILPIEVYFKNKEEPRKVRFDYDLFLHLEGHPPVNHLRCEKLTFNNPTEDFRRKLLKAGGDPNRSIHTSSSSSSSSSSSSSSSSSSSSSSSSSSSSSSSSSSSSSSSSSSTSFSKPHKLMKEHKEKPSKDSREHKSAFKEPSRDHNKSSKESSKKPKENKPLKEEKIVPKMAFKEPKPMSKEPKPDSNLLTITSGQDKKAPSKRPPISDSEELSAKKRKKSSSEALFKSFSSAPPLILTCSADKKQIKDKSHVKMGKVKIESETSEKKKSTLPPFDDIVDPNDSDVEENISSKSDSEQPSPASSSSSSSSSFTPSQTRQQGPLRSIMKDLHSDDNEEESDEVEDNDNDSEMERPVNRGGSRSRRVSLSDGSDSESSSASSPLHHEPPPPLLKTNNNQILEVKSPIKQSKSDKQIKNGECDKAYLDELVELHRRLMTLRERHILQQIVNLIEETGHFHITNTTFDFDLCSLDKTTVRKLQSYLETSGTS
The depositor's hits bear a star; i = inactive; ? = inconclusive; + = active, no number. The list is partial. The share of hits here may be higher or lower than overall.

| SMILES | FGF22 binding | AF4-AF9 inh |
| --- | --- | --- |
| C[C@H]1CN([C@@H](C)CO)C(=O)c2cccc(NC(=O)c3ccncc3)c2O[C@H]1CN(C)S(=O)(=O)c1ccc(Cl)cc1 | i | 3.6 |
| CO[C@@H]1CN(C)C(=O)c2cc(NC(=O)Cc3ccccc3)ccc2OC[C@H](C)N(C)C[C@H]1C | i | 0.3 |
| O=C(C[C@@H]1C[C@H]2c3cc(NC(=O)CC4CC4)ccc3O[C@H]2[C@@H](CO)O1)NCc1ccncc1 | i | -0.2 |
| CC(C)c1cn(CC[C@@H]2CC[C@@H](NS(=O)(=O)Cc3ccccc3)[C@@H](CO)O2)nn1 | i | 0.2 |
| COc1ccc2c3c([nH]c2c1)[C@@H](CO)N(C(=O)C1CCCCC1)CC31CCN(S(C)(=O)=O)CC1 | i | 2.1 |
| C[C@@H]1CCCCO[C@@H](CN(C)C(=O)CCC(F)(F)F)[C@H](C)CN([C@H](C)CO)C(=O)c2cc(NC(=O)c3ccncc3)ccc2O1 | i | -2.5 |
| C[C@H]1CN([C@@H](C)CO)C(=O)c2cc(C3=CCCCC3)cnc2O[C@@H]1CN(C)Cc1ccc(C(=O)O)cc1 | i | -2.8 |
| Cc1ccc(-c2ccc3c(c2)O[C@@H](CN(C)C(=O)NC(C)C)[C@@H](C)CN([C@@H](C)CO)S3(=O)=O)cc1 | i | -1.1 |
| Cc1ccccc1NC(=O)Nc1ccc2c(c1)C(=O)N(C)[C@H]1CC[C@H](CC(=O)NCC3CC3)O[C@H]1CO2 | i | -0.1 |
| Cc1noc(C)c1NC(=O)N(C)C[C@H]1Oc2ccc(NS(=O)(=O)c3c(C)noc3C)cc2CC(=O)N([C@@H](C)CO)C[C@@H]1C | i | -2.7 |
| C[C@@H]1CCCCO[C@@H](CN(C)Cc2ccc(C(F)(F)F)cc2)[C@@H](C)CN([C@H](C)CO)C(=O)c2cc(NC(=O)Nc3ccc4c(c3)OCO4)ccc2O1 | i | -5.6 |
| C[C@H](NC(=O)C[C@H]1C[C@H]2c3cc(NC(=O)NC4CCCCC4)ccc3O[C@H]2[C@@H](CO)O1)c1ccccc1 | i | -1.4 |
| COC(=O)[C@]12C[C@H](CC(=O)NCCC(C)C)C(=O)N(CCC3=CCCCC3)C1=C[C@H](COCc1ccccc1)O[C@@H]2C | i | 1.9 |
| NCC[C@H]1CC[C@H](NC(=O)NC2CCCCC2)[C@@H](CO)O1 | i | -1.1 |
| C[C@H](NC(=O)C[C@H]1CC[C@H](NC(=O)c2cccnc2)[C@H](CO)O1)c1ccccc1 | i | -1.3 |
| O=S(=O)(NCC[C@H]1CC[C@H](NS(=O)(=O)c2cccc(F)c2)[C@@H](CO)O1)c1cccc(F)c1 | i | -0.6 |
| CC(C)NC(=O)N1CC(=O)N2[C@H](CO)[C@@H](c3ccc(/C=C/c4ccccc4)cc3)[C@@H]2C1 | i | 2.4 |
| O=C(Nc1ccc2c(c1)[C@H]1C[C@H](CC(=O)N3CCOCC3)O[C@@H](CO)[C@H]1O2)NC1CCCC1 | i | 1.9 |
| COCC#Cc1cnc2c(c1)C(=O)N([C@@H](C)CO)C[C@H](C)[C@H](CN(C)Cc1ccccc1F)O2 | i | -2.8 |
| O=C(NCC1CCCCC1)[C@@H]1[C@@H](CO)[C@@H]2Cn3c(ccc(-c4ccccc4)c3=O)[C@H]1N2 | i | 0.4 |
| C[C@H]1CN([C@@H](C)CO)C(=O)c2cc(NS(=O)(=O)c3ccccc3)ccc2O[C@@H]1CN(C)Cc1ccncc1 | i | -1.2 |
| O=C(NC1Cc2ccccc2C1)[C@H]1[C@H](CO)[C@H]2Cn3c(cccc3=O)[C@@H]1N2C(=O)CC1CC1 | i | -0.2 |
| C[C@H](CO)N1C[C@H](C)[C@H](CN(C)C(=O)CCCN(C)C)OCCCC[C@H](C)Oc2ccc(NS(=O)(=O)c3cn(C)cn3)cc2C1=O | i | 1.4 |
| Cc1ccc(-c2cnc3c(c2)C(=O)N([C@H](C)CO)C[C@H](C)[C@H](CN(C)Cc2ccccc2C(=O)O)O3)cc1 | i | -0.6 |
| CCS(=O)(=O)N1CCCCN2[C@H](CO)[C@H](c3ccc(C#Cc4ccccc4OC)cc3)[C@H]2C1 | i | 6.6 |
| C[C@H](CO)N1C[C@H](C)[C@@H](CN(C)C(=O)Nc2ccc(F)cc2)Oc2ccc(NS(=O)(=O)c3ccc(Cl)cc3)cc2CC1=O | i | 1.1 |
| CCC(=O)N1CCC2(CC1)CN(Cc1ccc(Cl)cc1)[C@@H](CO)c1[nH]c3cc(OC)ccc3c12 | i | 3.2 |
| C[C@@H]1CN([C@H](C)CO)C(=O)c2cc(NS(=O)(=O)c3ccc(F)cc3)ccc2O[C@@H](C)CCCCO[C@@H]1CN(C)S(=O)(=O)c1cn(C)cn1 | i | -3.0 |
| O=C(Cc1ccccc1)N1C[C@@H]2[C@H](c3ccccc31)[C@H](CO)N2C(=O)c1ccc(F)cc1 | i | 0.4 |
| CN(C)C(=O)C[C@@H]1C[C@H]2c3cc(NC(=O)NC4CCCCC4)ccc3O[C@H]2[C@H](CO)O1 | i | -1.3 |
| C[C@H]1CN([C@@H](C)CO)C(=O)Cc2cc(NC(=O)Cn3cnnn3)ccc2O[C@@H]1CN(C)S(=O)(=O)c1cccs1 | i | 0.2 |
| C[C@H](CO)N1C[C@H](C)[C@@H](CN(C)C(=O)Nc2ccc(C(F)(F)F)cc2)Oc2ccc(N(C)C)cc2CC1=O | i | 17 |
| CCCNC(=O)C[C@@H]1CC[C@@H]2[C@H](COC[C@H](O)CN2Cc2ccc(Cl)c(Cl)c2)O1 | i | 0.6 |
| O=C(C[C@@H]1CC[C@H](NC(=O)Nc2ccc(C(F)(F)F)cc2)[C@@H](CO)O1)NCCN1CCCC1 | i | 6.1 |
| C[C@@H]1CN([C@H](C)CO)C(=O)c2c(c3ccccc3n2C)-c2ccccc2CO[C@H]1CN(C)S(=O)(=O)c1ccsc1 | i | -12 |
| COc1ccc2c3c([nH]c2c1)[C@@H](CO)N(CC1CC1)CC31CN(C(=O)C2CCOCC2)C1 | i | 5.0 |
| CO[C@H]1CN(C)C(=O)c2cc(NC(C)=O)ccc2OC[C@H](C)N(Cc2ccc(F)cc2)C[C@@H]1C | i | 0.5 |
| COCC(=O)N1[C@H](CO)[C@@H](c2ccccc2)[C@@H]1CN(C)C(=O)c1ccncc1 | i | -4.3 |
| CCCNC(=O)N1CC2(CN(CC3CC3)C2)c2c(n(C)c3cc(OC)ccc23)[C@H]1CO | i | 8.3 |
| C=C1C(=O)OC2/C=C(/C)CC/C=C(/C)CCC12 (configuration not stated) | i | -1.5 |
| Cc1ccc(S(=O)(=O)N[C@H]2C=C[C@@H](CC(=O)NCc3ccc(Cl)c(Cl)c3)O[C@H]2CO)cc1 | + | 0.5 |
| COc1ccc(NC(=O)Nc2ccc3c(c2)C(=O)N([C@H](C)CO)C[C@@H](C)[C@H](CN(C)C(=O)Nc2cccc4ccccc24)O3)cc1 | i | -29 |
| C[C@@H]1CN([C@H](C)CO)C(=O)c2cccc(NS(C)(=O)=O)c2O[C@H]1CN(C)Cc1ccc(Oc2ccccc2)cc1 | i | 1.0 |
| CCCNC(=O)[C@@H]1[C@@H](CO)[C@@H]2Cn3c(ccc(-c4ccccc4F)c3=O)[C@H]1N2CC1CC1 | i | 1.2 |
| COc1ccccc1C#Cc1ccc2c(c1)O[C@@H](CN(C)Cc1cncnc1)[C@H](C)CN([C@H](C)CO)S2(=O)=O | i | 6.4 |
| Cc1noc(C)c1NC(=O)Nc1cccc2c1O[C@H](CN(C)CC1CC1)[C@H](C)CN([C@@H](C)CO)C2=O | i | -1.2 |
| O=C1NC(c2ccccc2)(c2ccccc2)C(=O)N1CNc1ccccn1 | i | 2.9 |
| CC(C)NC(=O)N[C@@H]1CC[C@@H](CCNC(=O)C2CC2)O[C@H]1CO | i | -0.9 |
| C[C@H](CO)N1C[C@H](C)[C@@H](CN(C)Cc2ccncc2)Oc2ccc(NS(C)(=O)=O)cc2CC1=O | i | -1.7 |
| CC(=O)N1CC2(C1)[C@@H](c1ccccc1)[C@@H](CO)N2CC1CCOCC1 | i | 0.5 |
| COc1ccc(NC(=O)Nc2ccc3c(c2)C(=O)N([C@@H](C)CO)C[C@@H](C)[C@H](CN(C)S(C)(=O)=O)O3)cc1 | i | -1.2 |
| CC(=O)Nc1ccc2c(c1)C(=O)N(C)[C@@H]1CC[C@@H](CC(=O)NCc3ccc(Cl)cc3)O[C@@H]1CO2 | i | 0.5 |
| C[C@@H]1CN([C@H](C)CO)C(=O)c2cc(NC(=O)CCCN(C)C)ccc2O[C@@H]1CN(C)Cc1ccc2c(c1)OCO2 | i | 2.5 |
| CNC[C@@H]1Oc2cc(C#Cc3ccc(OC)cc3)ccc2S(=O)(=O)N([C@@H](C)CO)C[C@H]1C | i | 9.4 |
| C[C@H]1CN([C@@H](C)CO)C(=O)c2cccc(NC(=O)Nc3ccccc3)c2O[C@@H]1CN(C)Cc1ccc(Oc2ccccc2)cc1 | i | 0.0 |
| C[C@@H]1CCCCO[C@H](CN(C)Cc2ccc(Cl)c(Cl)c2)[C@H](C)CN([C@@H](C)CO)C(=O)c2cc(NS(=O)(=O)c3ccc(F)cc3)ccc2O1 | i | 0.6 |
| Cc1noc(C)c1NC(=O)N[C@H]1C=C[C@H](CC(=O)N2CCCCC2)O[C@@H]1CO | i | -1.1 |
| O=C(C[C@@H]1CC[C@H]2[C@@H](COC[C@H](O)CN2Cc2ccncc2)O1)NCc1ccncc1 | i | -6.4 |
| O=C(c1ccccc1F)N1CC2(C1)[C@@H](c1ccccc1)[C@@H](CO)N2CC1CC1 | i | 1.1 |
| C[C@@H]1CN([C@H](C)CO)C(=O)Cc2cc(NC(=O)Cn3cnnn3)ccc2O[C@@H]1CN(C)S(=O)(=O)c1ccc(Cl)cc1 | i | 0.2 |

Continued.
| SMILES | FGF22 binding | AF4-AF9 inh |
| --- | --- | --- |
| C[C@@H]1CCCCO[C@@H](CN(C)Cc2ccc(Cl)c(Cl)c2)[C@H](C)CN([C@H](C)CO)C(=O)c2cc(NS(=O)(=O)c3ccc(Cl)cc3)ccc2O1 | i | -0.3 |
| C[C@@H]1CN([C@@H](C)CO)C(=O)c2cc(NC(=O)Cc3ccccc3)ccc2O[C@@H]1CN(C)S(=O)(=O)c1cccs1 | i | -42 |
| C[C@H]1CN([C@@H](C)CO)S(=O)(=O)c2ccc(-c3ccc(F)cc3)cc2O[C@@H]1CN(C)Cc1ccccc1C(=O)O | i | 2.6 |
| Cc1noc(C)c1S(=O)(=O)N(C)C[C@@H]1Oc2c(cccc2N(C)C)C(=O)N([C@@H](C)CO)C[C@H]1C | i | -16 |
| C[C@H]1CCCCO[C@H](CN(C)C)[C@@H](C)CN([C@@H](C)CO)C(=O)c2cc(NS(=O)(=O)c3cccs3)ccc2O1 | i | -2.7 |
| O=C(C[C@@H]1C=C[C@@H](NC(=O)CN2CCOCC2)[C@@H](CO)O1)NCc1cccc(F)c1 | i | 0.4 |
| CO[C@@H]1CN(C)C(=O)c2cc(NC(=O)Nc3cccc(F)c3)ccc2OC[C@H](C)N(C(C)=O)C[C@@H]1C | i | ? |
| C[C@H](CO)N1C[C@H](C)[C@@H](CN(C)S(=O)(=O)c2cccs2)OCCCC[C@H](C)Oc2ccc(NC(=O)c3ccncc3)cc2C1=O | i | -0.4 |
| C[C@H]1CN([C@@H](C)CO)C(=O)c2cc(NS(=O)(=O)c3ccc(Cl)cc3)ccc2O[C@H]1CN(C)Cc1ccc(C(=O)O)cc1 | i | -2.4 |
| CC=Cc1ccc2n(c1=O)C[C@H]1[C@H](CO)[C@@H](C(=O)NCC3CC3)[C@@H]2N1C(=O)C1CC1 (mixture of isomers) | i | 1.5 |
| N#C[C@@H]1[C@@H](c2ccc(C#Cc3ccccc3F)cc2)[C@H](CO)N1C(=O)C1CCC1 | i | -0.2 |
| C[C@@H]1CN([C@@H](C)CO)C(=O)Cc2cc(NC(=O)c3ccncc3)ccc2O[C@H]1CN(C)Cc1ccncc1 | i | -3.0 |
| C[C@@H]1CCCCO[C@@H](CN(C)C(=O)C2CCCCC2)[C@H](C)CN([C@H](C)CO)C(=O)c2cc(NC(=O)NC3CCCCC3)ccc2O1 | i | -1.4 |
| O=C(C[C@@H]1CC[C@H](NS(=O)(=O)c2ccc(F)cc2)[C@@H](CO)O1)NC1CCCCC1 | i | -2.7 |
| CCC(=O)N[C@@H]1C=C[C@H](CC(=O)NCc2cc(F)cc(F)c2)O[C@@H]1CO | i | -3.0 |
| Cc1nn(C)cc1NC(=O)C[C@@H]1CC[C@@H]2[C@H](COc3ccc(NC(=O)C4CCC4)cc3C(=O)N2C)O1 | i | -1.0 |
| C[C@@H]1CN([C@H](C)CO)C(=O)c2cc(NC(=O)Cn3cnnn3)ccc2O[C@H]1CN(C)S(=O)(=O)c1ccc(F)cc1 | i | -1.2 |

Part of the list above, as labelled records.
Cc1ccc(S(=O)(=O)N[C@H]2C=C[C@@H](CC(=O)NCc3ccc(Cl)c(Cl)c3)O[C@H]2CO)cc1
  FGF22 binding = + | AF4-AF9 inh = 0.5

O=C(Nc1ccc2c(c1)[C@H]1C[C@H](CC(=O)N3CCOCC3)O[C@@H](CO)[C@H]1O2)NC1CCCC1
  FGF22 binding = i | AF4-AF9 inh = 1.9

COc1ccc2c3c([nH]c2c1)[C@@H](CO)N(C(=O)C1CCCCC1)CC31CCN(S(C)(=O)=O)CC1
  FGF22 binding = i | AF4-AF9 inh = 2.1

CO[C@@H]1CN(C)C(=O)c2cc(NC(=O)Cc3ccccc3)ccc2OC[C@H](C)N(C)C[C@H]1C
  FGF22 binding = i | AF4-AF9 inh = 0.3

Source: PubChem BioAssay
